PABP FP inh – PABP-poly(A) binding inhibition; P11940; PABP-poly(A) RNA binding, fluorescence polarization; inhibition, % at 35 µM; 1% of 290,000 active;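 active = 50% or more with normal probe brightness, or confirmed in later tests; inconclusive = above 50% with abnormal brightness, or retests that disagree; inactive = below 50% or failed in later tests; about a fifth of its hits are not listed in these tables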;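 note: calls also rest on retests at 20 µM and on dose response follow-up; controls were probe without protein and protein plus probe with vehicle; some compounds called inactive have numbers as strong as hits; many hits fall short of the cut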
Target sequence (P11940 whole entry, looked up): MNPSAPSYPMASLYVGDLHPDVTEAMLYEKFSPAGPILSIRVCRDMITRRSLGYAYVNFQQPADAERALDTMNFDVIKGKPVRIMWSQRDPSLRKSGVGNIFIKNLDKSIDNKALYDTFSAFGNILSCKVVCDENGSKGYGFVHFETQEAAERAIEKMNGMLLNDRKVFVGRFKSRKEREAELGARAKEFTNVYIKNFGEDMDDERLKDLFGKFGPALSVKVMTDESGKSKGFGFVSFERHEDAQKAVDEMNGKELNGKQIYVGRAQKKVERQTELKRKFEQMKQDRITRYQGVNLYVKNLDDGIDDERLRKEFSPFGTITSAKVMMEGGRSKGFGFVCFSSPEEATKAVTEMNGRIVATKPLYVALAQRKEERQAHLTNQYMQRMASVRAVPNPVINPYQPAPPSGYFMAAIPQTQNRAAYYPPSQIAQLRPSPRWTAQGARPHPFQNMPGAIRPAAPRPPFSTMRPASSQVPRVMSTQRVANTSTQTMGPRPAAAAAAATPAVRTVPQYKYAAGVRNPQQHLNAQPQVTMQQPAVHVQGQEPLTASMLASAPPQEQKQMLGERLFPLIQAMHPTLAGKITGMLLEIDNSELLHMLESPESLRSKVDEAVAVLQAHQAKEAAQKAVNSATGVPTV
eIF4H inh – inhibitors of RNA binding by human eIF4H; eIF4H fluorescence polarization binding assay; AID 2012; 0.94% of 290,000 active; Q15056; inhibition, % at 35 µM;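 active = 50% or more with normal probe brightness, or confirmed in later tests; inconclusive = above 50% with abnormal brightness, or retests that disagree; inactive = below 50% or failed in later tests; about a fifth of its hits are not listed in these tables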;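 note: calls also rest on retests at 20 µM and on dose response follow-up; 0% = protein and probe with vehicle and 100% = probe without protein; strong numbers were not always called active; many hits fall short of the cut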
Rce1 inhib – blocks yeast Ras-converting enzyme; Q03530; yeast membranes, quenched prenylated peptide cleavage fluorescence; calls only; 0.27% of 290,000 active; AID 2563;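 active = fall in fluorescence gain of 50% or more versus controls, with final raw signal at or below 3038400; inconclusive = same 50% fall but final raw signal above 3038400; inactive = fall in fluorescence gain under 50%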;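 note: plate controls were neutral control wells for no effect and wells lacking membranes for full effect; tested at 10 µM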
Target sequence (Q03530 whole entry, looked up): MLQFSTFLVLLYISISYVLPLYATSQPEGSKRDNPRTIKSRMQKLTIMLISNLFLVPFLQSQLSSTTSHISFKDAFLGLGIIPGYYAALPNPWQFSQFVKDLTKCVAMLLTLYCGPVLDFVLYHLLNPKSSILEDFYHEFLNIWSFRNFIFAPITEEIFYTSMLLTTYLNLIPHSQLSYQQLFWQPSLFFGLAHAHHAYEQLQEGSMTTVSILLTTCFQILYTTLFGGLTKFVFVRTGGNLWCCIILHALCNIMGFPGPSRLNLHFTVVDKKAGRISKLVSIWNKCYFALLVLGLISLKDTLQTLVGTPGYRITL
MT1-MMP act inh – MT1-MMP (human) activation inhibition | P50281 | HT1080 RFP-PRO-GFP cells, GFP/RFP ratio fluorescence, overnight; percent of plate control window, DMSO zero | GFP/RFP ratio change, % at 20 µM | 0.061% of 360,000 active;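 active = GFP/RFP ratio change of at least 30% with cell ATP level not reduced by more than half and red fluorescence within 50% of control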; note: strong numbers were not always called active
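Assay system: HT1080 RFP-PRO-GFP cells | Dosing: 20 µM single dose, 1% DMSO | Incubation: Cells overnight before dosing, compound overnight, 37 °C, 5% CO2 | Evaluation: GFP/RFP fluorescence ratio | Control set: DMSO-only wells and HT1080 RFP-L50D-GFP cell wells as references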
Env fusion inh – HIV envelope-mediated fusion inhibition; HeLa-JRFL Env/CEM21 cell fusion, luciferase; 1.1% of 360,000 active; inhibition, % at 12.3 µM; AID 651610;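 active = mean replicate inhibition score of at least 50 and every replicate individually at or above 50; inconclusive = only one of the two criteria met; inactive = mean below 50 and not all replicates reaching 50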;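 note: 0% = plate neutral controls and 100% = maraviroc near 300 nM; one replicate is shown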
CSC inhib – cancer stem cell inhibition; 1.1% of 300,000 active; cancer stem cell-like cells viability, luminescence; inhibition, % at 7.5 µM;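 active = mean at 75% or more and at least half the replicates too; inconclusive = mean and replicates disagree; tested in HMLE shEcad cells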;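 note: 0% = median of negative and 100% = median of positive control wells; the first replicate is given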
UUG fidelity – yeast start codon fidelity modulation; 0.13% of 350,000 active; S. cerevisiae UUG-firefly luciferase reporter, luminescence/redox ratio; activity score, % at 18.7 µM; AID 602363;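 active = replicate mean at a twofold rise or more, about +100% in these data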;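 note: firefly luciferase made from a UUG start codon reports start codon fidelity; reporter light over untreated wells divided by growth signal over untreated wells; some hits fall short of that in this replicate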
eIF4H inh retest – further read-out of eIF4H inh, marked with its call; inhibition, %; compound at 20 µM; confirmation average;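 mean of two retest wells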
PABP FP inh retest – recorded beside PABP FP inh, whose call it bears; inhibition, %; compound at 20 µM; confirmation repeats;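 mean of two retest wells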
MT1-MMP act inh RFP – second read-out of MT1-MMP act inh, no call of its own (marks repeat the call); RFP signal change, %; measured here: RFP expression control read;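 0 = vehicle wells; hits needed this value within 50% of zero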
The depositor's hits bear a star; i = inactive; ? = inconclusive; / = not tested or not shown.

SMILES	PABP FP inh	eIF4H inh	Rce1 inhib	MT1-MMP act inh	MT1-MMP act inh RFP	Env fusion inh	CSC inhib	UUG fidelity	others
O=C(NCc1cccnc1)c1ccc(S(=O)(=O)N2CCCCCC2)cc1	-17	-4	i	3	-1	0	-11	/
COc1ccc(N(CC(=O)N/N=C/c2cccc3c2OCCO3)S(=O)(=O)c2ccc(NC(C)=O)cc2)cc1	8	-2	i	-5	-4	/	-6	3
CCCc1cc(=O)[nH]c(SCC(=O)N2c3ccccc3NC(=O)C2(C)C)n1	/	/	/	7	-1	-3	-1	-7
Cc1ccsc1C(=O)OCC(=O)c1ccc[nH]1	/	/	/	0	-2	/	-3	6
Cn1cnnc1Sc1ccc(/C=C(\CC(=O)O)c2nc3ccccc3s2)cc1[N+](=O)[O-]	26	15	i	6	5	1	-9	-7
COc1cccc(CSc2nc3nc(C)cc(C)n3n2)c1	8	1	i	4	3	5	0	-22
CN(C)c1ccc(/C=N/NC(=O)c2nnn(-c3nonc3N)c2CN2CCCCCC2)cc1	/	/	i	-5	6	-4	31	-22
COCc1c(C(=O)OCC(=O)c2ccc[nH]2)oc2ccccc12	/	/	/	4	-5	9	/	-22
Cc1nc2ccc(C(=O)NCCCn3ccnc3)cn2c1N(C)C(=O)CCc1ccccc1	/	/	/	3	5	-269	/	-18
CC(C)(C)SCCNC(=O)COc1ccccc1	-2	-4	i	1	1	/	/	-18
CCOc1ccc(NC(=O)Nc2cc(C)ccc2OC)cc1	-8	5	/	/	/	-36	3	-6
CCOC(=O)C1=C(CNCCOc2ccc(OC)cc2)NC(=O)NC1c1ccc2c(c1)OCO2 (stereo not drawn)	3	-28	i	1	-4	0	-11	/
N#CCSc1nc2ccccc2c(=O)n1CCC(=O)NC1CCCCC1	-2	1	i	1	1	-10	9	4
Cc1nc(NCc2ccco2)nc2c1C(=O)CC(C)C2 (stereo not drawn)	-2	-7	i	7	2	/	/	-1
O=C(O)/C=C/C(=O)NCc1ccccn1	-1	?	i	-1	6	4	-5	/
Cc1cc([N+](=O)[O-])nn1CCCC(=O)Nc1ccc2c(c1)OCO2	7	-4	i	-2	-5	-25	4	-6
COc1ccc(C(c2nnnn2C2CCCC2)N2CCN(C/C=C/c3ccccc3)CC2)cc1 (stereo not drawn)	/	/	/	0	-1	0	/	14
Nc1nc2ccccc2n1Cc1ccc(Cl)c(Cl)c1	-1	0	i	-2	-18	?	7	-3
COc1cc(C(=O)OCc2nc3ccsc3c(=O)[nH]2)c([N+](=O)[O-])cc1OC	/	/	i	2	-3	-12	-9	-15
CCOC(=O)NC(=O)/C(C=Nc1ccc(Cl)cc1)=C(\C)O	?	2	i	5	4	16	-14	/
COc1ccc2oc(C(=O)c3ccccc3)c(N)c2c1	0	-6	i	/	/	-212	-15	/
Cc1noc(C)c1C(=O)N1CCN(S(=O)(=O)c2cccs2)CC1	3	-2	i	0	2	-3	11	-6
CC(=O)c1c(C)[nH]c(C(=O)OCC(=O)N2c3ccccc3NC(=O)C2(C)C)c1C	-1	3	i	1	4	27	2	/
O=C(NNC(=S)Nc1ccccc1)c1ccncc1	-5	-8	i	5	2	/	-8	/
CC(=O)N=C1SC2CS(=O)(=O)CC2N1Cc1ccc(C)cc1 (stereo not drawn)	4	-2	i	/	/	0	-3	4

Part of the list above in order of number of heavy atoms, highest first.
SMILES	PABP FP inh	eIF4H inh	Rce1 inhib	MT1-MMP act inh	MT1-MMP act inh RFP	Env fusion inh	CSC inhib	UUG fidelity	others
Cn1cnnc1Sc1ccc(/C=C(\CC(=O)O)c2nc3ccccc3s2)cc1[N+](=O)[O-]	26	15	i	6	5	1	-9	-7
COc1cccc(CSc2nc3nc(C)cc(C)n3n2)c1	8	1	i	4	3	5	0	-22
Nc1nc2ccccc2n1Cc1ccc(Cl)c(Cl)c1	-1	0	i	-2	-18	?	7	-3

Next records:
SMILES	PABP FP inh	eIF4H inh	Rce1 inhib	MT1-MMP act inh	MT1-MMP act inh RFP	Env fusion inh	CSC inhib	UUG fidelity	others
COc1cccc(C(=O)CC(C(=O)O)c2ccc(F)cc2)c1 (stereo not drawn)	3	0	i	-1	6	14	-7	-14
COc1cc2cc(C)c3nnc(SCC(=O)Nc4cc(C)on4)n3c2cc1OC	11	-1	i	2	4	19	11	/
Nc1c(S(=O)(=O)c2ccccc2)c2nc3ccccc3nc2n1CCN1CCOCC1	10	8	i	2	1	-6	0	/
Cc1noc(/C=C/c2cccs2)c1S(=O)(=O)N1CCC(C(=O)NCCCN2CCC(C)CC2)CC1	1	-6	i	0	2	12	5	/
CCOC(=O)c1c(C)nn(-c2ccc(NC(=O)c3c(C)noc3C)cc2)c1C	5	-2	i	2	-2	25	/	20
CCOC(=O)NC(=O)c1cn(N(C)c2ncc(C(F)(F)F)cc2Cl)c(=O)[nH]c1=O	0	6	i	-1	-3	5	-10	/
CCN(CC)S(=O)(=O)c1ccc(OC)c(NC(=O)c2cc(=O)[nH]c3ccccc23)c1	8	2	/	7	-1	12	-9	/
COc1ccc(CCNC(=O)CSc2nc3c(sc(=S)n3-c3ccccc3)c(=O)[nH]2)cc1OC	/	/	/	1	6	4	/	3
O=C(COC(=O)Cc1ccccc1F)Nc1cc(S(=O)(=O)N2CCOCC2)ccc1N1CCCC1	7	-3	i	4	3	-10	-13	/
COc1cccc(O)c1CN1CCC(C(=O)Nc2ccc(Oc3cccnc3)cc2)CC1	-12	-5	i	2	-9	22	6	-2
Cc1cc2nc(-c3ccc(F)cc3)c(Cc3ccccc3)n2c(C)c1Br	/	/	/	2	0	-2	/	-12
CN(C)/C=C/c1oc2ccc(O)cc2c1[N+](=O)[O-]	-4	-15	i	58*	-2.8*	-12	-12	/
CCCn1c(=O)n(C)c(=O)c2c(SCC(=O)NCC(c3ccccc3)N(C)C)nc(CC(C)C)nc21 (stereo not drawn)	4	2	i	-12	-12	/	5	1
CNc1oc(C)nc1S(=O)(=O)c1ccc(C)cc1	3	-10	i	10	6	0	-3	-19
CN1CCN(NC(=O)/C=C/c2cccc(Cl)c2)CC1	-20	-8	i	5	3	-7	-9	20
CCOC(=O)c1c(NC(=O)c2nn(C)cc2[N+](=O)[O-])sc(C)c1C	8	38	i	0	1	8	7	-7
CCN(CC(=O)Nc1cccc(S(=O)(=O)N2CCCCC2)c1)Cc1ccccc1	/	/	i	-3	-8	38	2	-11
CC(C)(C)CN1CCNC(=O)C1CC(=O)NCCN1CCCc2ccccc21 (stereo not drawn)	16	58*	i	-5	7	-4	5	/	eIF4H inh retest=101*;PABP FP inh retest=49
O=C1c2ccccc2C(Nc2ccc(S(=O)(=O)N3CCCCCC3)cc2)N1Cc1ccco1 (stereo not drawn)	1	8	i	-4	-4	-94	-1	-17
Cc1cc(NC(=O)c2ccccc2Oc2ccccc2)no1	1	-2	i	1	-3	/	-14	-18
CC(C)CCNc1ncnc2c1cnn2Cc1ccccc1Cl	8	6	i	8	2	8	22	-12
COCCCNC(=O)c1ccc(CS(=O)(=O)c2ccccc2C)o1	-2	-12	i	-4	-2	2	-4	-31
COCCN1Cc2cccc(C(=O)NCc3ccc4c(c3)OCO4)c2C1=O	10	6	i	1	-5	-4	-1	/
COc1ccccc1OCCC(=O)OCC(=O)NCc1ccccc1	-2	1	i	4	8	4	-4	/
O=C(NCc1ccccc1)c1cc(C2COCCN2S(=O)(=O)c2cccs2)on1 (stereo not drawn)	/	/	/	-3	2	8	/	3

(next part)
SMILES	PABP FP inh	eIF4H inh	Rce1 inhib	MT1-MMP act inh	MT1-MMP act inh RFP	Env fusion inh	CSC inhib	UUG fidelity	others
CN(c1cc(=O)n2ccccc2n1)C1CCCCC1	-9	-3	i	2	0	/	-11	-8
Cn1c(=O)cc(NCc2ccccc2)[nH]c1=O	2	14	i	8	2	5	-8	-15
CCn1cc(/C=C/C(=O)Nc2ccn(Cc3c(F)c(F)cc(F)c3F)n2)cn1	16	1	i	0	1	-3	-3	/
O=C(Nc1ccc(-c2n[nH]c(=S)o2)cc1)c1ccccc1Cl	25	8	i	6	5	-17	-11	-17
O=C(Nc1ccccc1N1CCCCC1)C1=COCCO1	/	/	/	-7	-4	/	-9	-4
COc1ccc2cc3c(nc2c1)OCC3	8	-8	i	-2	-1	-176	4	-11
N#Cc1sc(C(N)=O)c(-c2ccccc2)c1-c1ccccc1	2	-10	i	-2	-5	-8	11	/
Oc1c(C=Nc2ccc(Cl)cn2)sc2ccccc12	-4	6	i	-25	12	-119	-8	/
CCNc1nc(NCC)nc(C(=O)OCCO)n1	-3	0	i	-2	3	16	-1	-16
COCCNC(=O)[C@H]1C[C@@H]1[C@H](NP(=O)(c1ccccc1)c1ccccc1)c1ccccc1	10	-4	/	4	1	/	-6	-3
CSc1ccc(CCNC(=O)CN2C(=O)c3cccnc3Oc3ccc(C)cc32)cc1	-4	-17	i	0	-1	9	11	-11
COc1ccc2c(c1)C(c1ccc(Cl)cc1)NC(=O)C2 (stereo not drawn)	/	/	i	-2	-2	43	5	-11
Cn1cccc1-c1nc2ccc(NC(=O)c3ccco3)cc2[nH]1	2	-3	i	4	11	-169	4	-12
CC(CCc1ccccn1)C(=O)C(C)CCc1ccccn1 (stereo not drawn)	/	/	/	0	0	-17	/	0
Oc1ccccc1/C=N/N1CCN(c2ccccn2)CC1	7	8	i	5	-5	-43	4	/
CC(=O)Nc1ccc(CN2CCN(c3cccc(C(F)(F)F)c3)CC2)cc1	17	9	i	1	3	40	3	-9
O=S(=O)(c1ccccc1)N1CCC(n2nnc3cc(F)ccc32)CC1	6	1	i	4	4	/	6	-16
CSc1nn2c(C)c(C)c(C)nc2c1C#N	10	0	i	5	2	2	6	/
COc1ccccc1-c1cc(-c2ccc(C)cc2)nc(SCc2nnc(-c3ccccc3)o2)c1C#N	7	7	i	-2	-7	-77	-4	-19
Cc1ccccc1/C(N)=N/OC(=O)c1cccs1	-1	5	i	0	-4	-7	-10	/
COc1ccc(-c2cc3ncc(C(C)=O)c(C)n3n2)cc1	-13	0	i	-1	3	-34	-16	/
CO/N=C(/CNC(=O)c1ccc(F)cc1)c1ccc(Cl)cc1	-7	-11	i	0	4	/	25	/
CCCNC(=O)c1ccc(CNc2c(N3CCC(C(=O)OCC)CC3)c(=O)c2=O)cc1	-8	-6	i	-2	4	/	-3	-14
Cc1ccc2c(CC(=O)Nc3sccc3C(N)=O)coc2c1	2	0	i	0	-4	/	1	/
O=C(CNC(=O)[C@@H]1Cc2ccccc2CN1)Nc1ccc2c(c1)OCO2	-12	7	i	2	2	1	-12	-20

Next part:
SMILES	PABP FP inh	eIF4H inh	Rce1 inhib	MT1-MMP act inh	MT1-MMP act inh RFP	Env fusion inh	CSC inhib	UUG fidelity	others
COC(=O)Cc1c(O)ccn(C2CC2)c1=O	-2	-8	i	1	3	3	-5	/
Cc1nc([N+](=O)[O-])cn1CC(=O)NCCCO	-3	3	i	-1	0	/	-1	/
CN(C(=O)NC1CCCCC1)[C@H]1C[C@H]2c3[nH]c4ccccc4c3CCN2C(=O)[C@H]1CO	/	/	/	-2	-1	i	/	10
O=C(Nc1ccc(Cl)cc1F)C1CCN(S(=O)(=O)c2cccnc2)CC1	0	-6	i	-2	-2	/	-5	-10
Cc1ccccc1NC(=O)c1ccc2nc(N3CCOCC3)sc2c1	-6	-14	i	-3	-8	7	-6	-40
COCCNC(=O)c1nn2cccnc2c1Cl	2	-2	i	-3	1	-1	-2	-2
Cc1cc(NC(=O)CSc2nnc(-c3ccncc3)n2-c2ccc(F)cc2)no1	2	0	i	-1	3	-1	-2	/
